# From PubChem
# Insulin prom inh: TRM-6 insulin promoter activity inhibition. AID 1273. inhibition, % at 2 µM. hit rate 0.9% among 130,000. TRM-6 cells (human fetal islet line), insulin promoter-eGFP reporter, imaging; reporter expression induced with tamoxifen;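 active = inhibition above the mean plus 3 SD, with well images judged a real hit on visual review, cut at about 60% in these data, passing the limit was not always enough; inconclusive = inhibition over the cutoff but images rejected on review; inactive = inhibition not above the cutoff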
# GALR2 agonist: agonists of human galanin receptor 2 (GALR2) | activation, %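 (tested at 5 µM)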 | hit rate 0.48% among 140,000 | GALR2-expressing cells, agonist activation read-out;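 active = above mean plus 3 SD of all compounds, about 5% in these data, not always enough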;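 note: 0% = vehicle buffer wells and 100% = reference agonist at full effect; tested in CHO reporter cells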
# Target sequence (O43603 whole entry, looked up): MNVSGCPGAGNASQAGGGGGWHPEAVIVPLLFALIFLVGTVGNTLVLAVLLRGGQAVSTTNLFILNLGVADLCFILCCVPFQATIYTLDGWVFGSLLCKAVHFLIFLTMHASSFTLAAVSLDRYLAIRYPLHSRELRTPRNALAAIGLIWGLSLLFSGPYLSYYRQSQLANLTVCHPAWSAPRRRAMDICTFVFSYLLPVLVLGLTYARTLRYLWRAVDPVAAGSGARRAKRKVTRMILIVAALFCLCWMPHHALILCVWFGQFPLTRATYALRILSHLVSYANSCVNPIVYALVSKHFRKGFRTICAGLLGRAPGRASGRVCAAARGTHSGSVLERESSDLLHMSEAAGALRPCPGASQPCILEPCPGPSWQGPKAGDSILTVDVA
# HSV augment: HSV replication enhancement. HSV replication augmentation in cells, fold increase. maximum fold increase. hit rate 0.005% among 220,000. AID 1956;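 active = peak rise of 1.5-fold or more in the series; inconclusive = self-fluorescent or not available for retest; tested in PC3 cells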;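 note: first round at 10 µM; read as green reporter fluorescence; hits show the peak of a series up to 25 µM; 1 = signal of infected wells without compound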
# PKD1 inh: inhibitors of human PKD1 kinase; Q15139; PKD1 kinase fluorescence polarization assay; inhibition, %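 (about 10 µM by stock and volumes)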; hit rate 0.056% among 200,000; AID 797;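 active = inhibition of 50% or more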;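 note: controls were vehicle for no effect and a reference inhibitor for full effect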
# RGS16-Gao: modulates binding between human RGS16 and Galphao | O15492+P09471 | bead-based flow cytometry RGS16-Galphao binding, fluorescence; actives lie on both sides | binding response (% of control), % at 10 µM | hit rate 0.38% among 220,000 | AID 1441;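 active = below 25% or above 175%, edge rows of some plates excepted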;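 note: Galphao activated by GDP with aluminum fluoride before binding; 100% = wells without compound and 0% = beads without RGS; some results beyond the cut were filed as inactive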
# Target sequence (O15492 whole entry, looked up): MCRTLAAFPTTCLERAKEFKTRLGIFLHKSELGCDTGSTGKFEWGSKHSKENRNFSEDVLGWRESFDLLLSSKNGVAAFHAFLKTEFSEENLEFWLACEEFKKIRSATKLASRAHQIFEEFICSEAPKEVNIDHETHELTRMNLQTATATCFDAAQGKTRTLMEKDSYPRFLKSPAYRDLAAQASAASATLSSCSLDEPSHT
# Target sequence (P09471 whole entry, looked up): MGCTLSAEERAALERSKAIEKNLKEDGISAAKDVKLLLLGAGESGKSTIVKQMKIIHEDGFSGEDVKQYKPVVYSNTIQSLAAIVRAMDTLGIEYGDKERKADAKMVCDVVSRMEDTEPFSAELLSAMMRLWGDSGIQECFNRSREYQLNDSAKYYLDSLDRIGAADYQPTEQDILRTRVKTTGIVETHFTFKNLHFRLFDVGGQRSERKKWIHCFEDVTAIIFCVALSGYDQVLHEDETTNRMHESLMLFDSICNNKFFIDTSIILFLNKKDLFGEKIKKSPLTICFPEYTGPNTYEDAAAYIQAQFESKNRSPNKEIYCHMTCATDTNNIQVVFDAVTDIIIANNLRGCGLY
# Insulin prom inh cell count: also measured in Insulin prom inh; calls as there; normalized cell count, %; measured here: cell count, toxicity; reference of the scale not given here;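 cells exposed to compound for 48 h; stained nuclei by imaging scaled within each plate; lower means fewer cells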
# HSV augment primary fold: also measured in HSV augment; calls as there; fold increase; compound at 10 µM; measured here: primary screen fold increase 10 uM; tested in PC3 cells;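 GFP signal in the first replicate; 1 = infected wells without compound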
# An asterisk follows results filed as active; i = inactive; ? = inconclusive; · = not tested or not shown.
compound	Insulin prom inh	Insulin prom inh cell count	GALR2 agonist	HSV augment	HSV augment primary fold	PKD1 inh	RGS16-Gao
CCCCNC(=O)C1(NC(=O)Nc2ccc(C)cc2)CCCCC1	·	·	·	i	0.97	-1	99
N#C/C(=N\Nc1cc(Cl)cc(Cl)c1)c1nnc2n1CCCCC2	3	121	-1.4	i	1.1	-2	104
CC1(c2ccccc2)NC(=O)N(CC(=O)NC(=O)NCc2ccco2)C1=O (configuration not stated)	3	127	-0.6	i	0.94	-11	101
CC1CCN(c2ccc(C(=O)O)cc2)CC1	·	·	-3.4	i	0.86	2	96
C/C(=N\NC(=O)C(c1ccncc1)N1CCOCC1)c1ccc(Br)cc1 (configuration not stated)	-87	132	-0.2	i	0.92	-2	98
O=C(NNc1c(Cl)cncc1Cl)c1cccs1	·	·	·	i	0.87	·	101
COc1ccc(/C=C/C(=O)NC(=S)NN2CCCCC2c2cccnc2)cc1 (configuration not stated)	-63	113	-0.1	i	1.4	5	99
Cc1cc(N2CCN(c3cccc(C(F)(F)F)c3)CC2)n2ncnc2n1	-39	78	-1.2	i	0.81	-11	100
CCCC(=O)C1=C(O)C(c2cccc(Oc3ccccc3)c2)CCC1=O (configuration not stated)	·	·	·	i	0.95	3	101
COc1ccc(C2N(C(=O)CN3CCOCC3)CCN2S(=O)(=O)c2ccccc2)cc1 (configuration not stated)	·	·	-2.9	i	0.92	-13	103
COc1ccccc1-c1nnc(Sc2nc([N+](=O)[O-])nn2C)o1	·	·	0.1	i	0.4	0	102
COc1cccc(/C=N/N2C(=O)CSC2=S)c1O	7	68	-1.1	i	1	-3	99
CCOC(=O)c1c(NC(=O)c2cc(C)oc2C)sc(C(=O)Nc2ccc(Cl)cc2)c1C	·	·	-2.4	i	0.71	-7	102
Cn1cnnc1SCc1ccccc1	·	·	-2.8	·	·	-4	93
O=C(/C=C/c1ccccc1Cl)NCc1ccccc1	3	113	-3.3	i	1	-9	113
COC(=O)c1ccc(N/C(C)=C/C(=O)c2ccc(C)o2)cc1	-88	127	-2.1	i	1.1	0	85
Cc1cc(C)c2[nH]c(=O)c(CN(Cc3ccccc3)C(=S)NCCCN(C)C)cc2c1	-120	61	·	i	0.66	6	96
CCc1noc(C)c1C(=O)N1CCCC(CCC(=O)NCc2ccc(F)c(F)c2)C1 (configuration not stated)	·	·	·	i	1.1	0	98
O=C(Oc1ccc(Cl)cc1)c1ccc(N2CCOCC2)c([N+](=O)[O-])c1	·	·	-0.8	i	1.2	-4	103
O=C(O)Cn1c(=O)cnc2ccccc21	-43	87	-1.2	i	0.99	-6	109
COc1ccc2[nH]c3c(=O)n(/N=C/[C@H]4C(C)C=C(C)CC4C)c(=O)[nH]c3c2c1 (some centres not stated)	·	·	-1.3	i	0.87	9	69
Cc1nc(C)c(C(=O)Nc2cccc(Cl)c2)o1	-129	42	-1.6	i	0.89	-1	96
CC(C)(C)OC(=O)N/N=C\c1cccnc1	-23	139	·	i	0.92	-1	96
COc1ccc(/C=N/NC(=S)Nc2ccccc2)cc1COc1cccc(C)c1C	·	·	·	i	0.8	·	96
CCOC(=O)Cn1nc(-c2ccc(F)cc2)oc1=O	-14	99	-2.3	i	1	1	102
O=C1c2ccccc2-c2nc3ncnn3c(-c3ccccc3)c21	-3	95	-0.9	·	·	-3	·
CC(=O)O/N=C/c1c(N2CCOCC2)n(C)c2ccccc12	29	68	-2.1	i	0.75	-9	105
CC(C)Cn1c(-c2cc([N+](=O)[O-])ccc2Cl)nc2c1c(=O)[nH]c(=O)n2Cc1ccccc1	·	·	1.2	i	0.9	1	101
CC(=O)Oc1ccc2c(=O)c(-c3ccccc3)coc2c1	·	·	·	i	1	-1	106
CCN(CC)c1ccc(/C=N/NC(=S)NCc2ccccc2)cc1	·	·	1.6	i	1.1	2	89
C=CCOc1nc2c(c(=O)n(C)c(=O)n2C)n1Cc1ccc(Cl)cc1	·	·	-2.8	i	1	2	102
CCC(CC)C(=O)c1c[nH]c(C(=O)NCc2ccco2)c1	-14	104	1.1	i	0.83	-4	101
CC1Cc2cc(-c3csc(NC(=O)Cc4cccs4)n3)ccc2N1S(C)(=O)=O (configuration not stated)	·	·	-1.2	·	·	0	104
O=C(Nc1nccs1)C(c1ccccc1)N1CCCCC1 (configuration not stated)	·	·	·	i	1	-3	98
COCCCn1c(SCC(=O)n2c(C)c(C)c3ccccc32)nnc1-c1ccoc1C	·	·	-1.3	i	0.99	-10	105
CC(CC(=O)O)CC(=O)Nc1ccccc1C(=O)O (configuration not stated)	-176	96	-0.8	i	0.82	-3	103
c1ccc(Nc2cc(Nc3ccccc3)[nH]n2)cc1	·	·	-2.8	i	0.77	-3	81
N#Cc1nc(-c2cccs2)oc1N1CCN(Cc2ccccc2)CC1	-49	93	-2.0	i	0.83	2	94
c1ccc2sc(N3CN(CCN4CCOCC4)CN(c4nc5ccccc5s4)C3)nc2c1	·	·	-0.8	i	0.87	-12	96
CC(C)N(CCNC(=O)C1CCN(S(=O)(=O)N2CCOCC2)CC1)Cc1ccccc1	-14	182	-2.1	·	·	-10	101
Nc1nc(N2CCOCC2)cc(=O)[nH]1	57	77	0.6	·	·	-2	100
Cc1ccc(C(=O)NCCc2cc3ccc(C)c(C)c3[nH]c2=O)cc1[N+](=O)[O-]	·	·	-0.9	i	0.8	19	106
CCOC(=O)C(C)(C)N(Cc1ccc(Cl)cc1)S(=O)(=O)c1ccc(Cl)c([N+](=O)[O-])c1	-7	90	-1.7	i	0.58	-17	114
O=C(NCCCn1ccnc1)C(=O)NCC(c1ccco1)N1CCN(c2ccc(F)cc2)CC1 (configuration not stated)	·	·	·	i	1	-2	95
Cc1c(C(=O)N2CCN(c3ccccc3)CC2)sc2ncnc(N3CCC(C)CC3)c12	·	·	-2.3	·	·	-11	79
O=C(Nc1ccccc1N1CCOCC1)c1ccc(Cl)nc1	·	·	·	i	1	4	102
O=C(COC(=O)/C=C/c1ccccc1)NCC1CCCO1 (configuration not stated)	·	·	·	i	1	0	100
Fc1ccccc1COc1ccccc1CNCc1ccncc1	·	·	-0.7	i	1	-9	99
COc1ccc(OCCSc2ncn[nH]2)cc1	11	65	0.1	i	0.96	-11	107
CS(=O)(=O)Nc1ccc(-c2n[nH]c(=S)n2-c2ccccc2)cc1	·	·	-1.6	i	0.81	-6	100

# Later entries:
compound	Insulin prom inh	Insulin prom inh cell count	GALR2 agonist	HSV augment	HSV augment primary fold	PKD1 inh	RGS16-Gao
O=C(c1ccccc1[N+](=O)[O-])N1CCC(Cc2ccccc2)CC1	34	110	-4.8	i	0.93	8	·
COc1ccc(CNC(=O)CCCCCn2c(SCC#N)nc3cc4c(cc3c2=O)OCO4)cc1	19	49	-1.2	i	0.76	1	111
CCCC(C)NC1=NCCCCC1 (configuration not stated)	-30	117	-5.7	i	0.89	-2	117
COc1ccc(NC(=O)c2ccc(COc3ccccc3)o2)cc1	5	57	-1.2	i	0.91	-14	102
Cc1ccc(-n2[nH]c(C)c(/C=C3/C=Nc4ccccc43)c2=O)cc1C	43	48	-3.2	i	0.91	-3	102
Cc1cccc(NC(=S)NNC(=O)c2nn(C)cc2Cl)c1	·	·	-3.3	i	1.1	2	99
COc1ccc(C(=O)N/C(=C\c2ccco2)C(=O)NC2CCS(=O)(=O)C2)cc1 (configuration not stated)	47	115	·	i	1	0	107
O=C(Nc1sc2c(c1C(=O)O)CCC2)c1cccs1	-33	59	-0.4	·	·	1	91
CC(C)C1Nc2ccc(C(=O)O)cc2C2C=CCC21 (configuration not stated)	·	·	·	?	·	-2	94
CS(=O)(=O)Nc1cccc(C2=NN(S(C)(=O)=O)C(c3ccccc3)C2)c1 (configuration not stated)	-135	71	·	i	1.1	10	101
Cc1ccc(S(=O)(=O)NC(C)C(=O)Nc2ccc(C(N)=O)cc2)cc1 (configuration not stated)	45	118	-1.4	i	1.1	5	96
CC12CCC(=O)N1C(C(=O)OCC(=O)Nc1cc(S(=O)(=O)N3CCCCC3)ccc1Cl)CS2 (configuration not stated)	47	84	-1.2	i	0.95	-3	110
Cc1ccc(NC(=O)Cn2nnc(C(=O)Nc3ccc(C)c(C)c3)c2N)cc1	30	72	-0.7	i	0.75	-2	128
CCOC(=O)CSc1nnc(CNc2cccc(Cl)c2)n1-c1ccccc1	-57	111	0.0	i	1.1	-27	105
CCOC(=O)C(C)Sc1nc2c(c(=O)[nH]c(=O)n2C)n1CCc1ccccc1 (configuration not stated)	-36	93	-0.8	i	1	4	100
COc1ccccc1OCCOc1ccc(C(=O)c2ccccc2)cc1	13	93	-3.0	i	0.97	11	111
O=c1oc2ccccc2c2c1ncn2-c1ccccc1	-12	141	1.5	i	1.1	-1	108
CCOC(=O)Cc1cc(=O)n2[nH]c(C)c(-c3ccc(OC)cc3)c2n1	-38	86	-1.4	i	0.86	0	98
COc1ccc(NC(=O)CN(c2ccccc2)S(=O)(=O)N(C)C)cc1Cl	-79	99	·	i	0.65	-5	100
Cc1ccccc1-n1c(C)cc(/C=C2/C(=N)N3C(c4ccccc4)=CSC3=NC2=O)c1C	·	·	2.4	i	1.3	-13	85
Oc1c(C(c2ccccc2)N2CCCCC2)sc2ncnn12 (configuration not stated)	-43	137	-0.6	i	0.84	12	97
CC(=O)Nc1nc2ccc(NC(=O)c3ccco3)cc2s1	13	119	-1.6	i	1	-4	98
COc1cc2c(cc1NC(=O)COC(=O)[C@@H](NS(=O)(=O)c1cccc(Cl)c1)C(C)C)oc1ccccc12	-53	78	-1.4	i	0.76	-13	107
COCCNC(=O)/C(C#N)=C/c1ccc(-c2ccc(OC)cc2[N+](=O)[O-])o1	-6	111	-2.0	i	0.93	-1	99
COc1ccc(CCNC(=O)c2ccc(N(C)S(=O)(=O)c3ccc(C)cc3)cc2)cc1	·	·	·	i	0.8	-7	99

# Sorted by value in PKD1 inh (highest first): 5 of the compounds above
compound,GALR2 agonist,HSV augment,HSV augment primary fold,PKD1 inh,RGS16-Gao
O=C(c1ccccc1[N+](=O)[O-])N1CCC(Cc2ccccc2)CC1,-4.8,i,0.93,8,·
CC(C)C1Nc2ccc(C(=O)O)cc2C2C=CCC21 (configuration not stated),·,?,·,-2,94
CC12CCC(=O)N1C(C(=O)OCC(=O)Nc1cc(S(=O)(=O)N3CCCCC3)ccc1Cl)CS2 (configuration not stated),-1.2,i,0.95,-3,110
COc1ccc(NC(=O)CN(c2ccccc2)S(=O)(=O)N(C)C)cc1Cl,·,i,0.65,-5,100
Cc1ccccc1-n1c(C)cc(/C=C2/C(=N)N3C(c4ccccc4)=CSC3=NC2=O)c1C,2.4,i,1.3,-13,85

# New compounds follow
compound	Insulin prom inh	Insulin prom inh cell count	GALR2 agonist	HSV augment	HSV augment primary fold	PKD1 inh	RGS16-Gao
CN(C)S(=O)(=O)c1cccc(C(=O)OCC(=O)NC2CCCc3ccccc32)c1 (configuration not stated)	·	·	-0.8	i	1.1	5	104
CSCCC1NC2(C(=O)Nc3c2ccc(Cl)c3C)[C@@H]2C(=O)N(C3CCCC3)C(=O)[C@H]12 (some centres not stated)	29	57	0.0	i	0.8	-10	58
Cc1c(O)ccc(C(=O)COc2ccccc2F)c1O	-38	99	-0.1	i	0.82	-4	95
Cc1cccc(NC(=O)c2cc3c(s2)-c2c(C)cccc2OC3)n1	·	·	·	i	0.92	·	108
CCCCCOC(=O)Nc1ccc(S(=O)(=O)Nn2cnnc2)cc1	0	101	-0.9	i	0.89	0	118
COc1cc(OC)c(C2=NOC(C(=O)NCc3cccs3)C2)cc1Cl (configuration not stated)	·	·	·	i	0.75	4	100
O=C1C2ON(c3ccccc3)C(c3cccnc3)C2C(=O)N1c1ccc(Cl)c(Cl)c1 (configuration not stated)	·	·	0.3	i	0.88	13	99
CC(Sc1c[nH]c2ccccc12)C(=O)O (configuration not stated)	3	82	-0.7	·	·	-8	113
CCc1ccc2nc3sc(C(=O)O)cc3cc2c1	-8	125	·	i	0.91	-4	78
Cc1cc(C)nc(-n2nc(C)c3c(C(=O)O)cc(-c4cccc(Br)c4)nc32)n1	·	·	·	i	0.87	·	99
COc1ccc(CN(C(=O)CN2C(=O)COc3ccccc32)C2CCCC2)c(OC)c1	10	85	-1.7	i	1	-6	106
Cc1c(C)[n+](=O)c(-c2ccc(F)cc2)c(C)n1[O-]	·	·	-1.8	i	0.91	-1	97
